# Compound activity: PubChem, Sanford-Burnham Center for Chemical Genomics
# PfGluPho inh: PfG6PD (Plasmodium falciparum) enzyme inhibition; PfGluPho enzyme, NADPH resazurin-diaphorase fluorescence; inhibition, % at 20 µM; actives 0.78% (n = 350,000); AID 504690;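 active means inhibition reaching at least a set limit at 20 µM in the primary screen, cut at about 59% in these data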;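 further: 0% = DMSO wells with substrate and 100% = DMSO wells lacking glucose-6-phosphate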
# SENP8 block: SENP8 (human) protease inhibition; recombinant SENP8, Nedd8 substrate fluorescence; inhibition, % at 20 µM; actives 0.64% (n = 360,000); in the data active means inhibition mostly above about 40%, no sharp cut-off; inactive means mostly below about 27%
# Target sequence (Q96LD8 whole entry, looked up): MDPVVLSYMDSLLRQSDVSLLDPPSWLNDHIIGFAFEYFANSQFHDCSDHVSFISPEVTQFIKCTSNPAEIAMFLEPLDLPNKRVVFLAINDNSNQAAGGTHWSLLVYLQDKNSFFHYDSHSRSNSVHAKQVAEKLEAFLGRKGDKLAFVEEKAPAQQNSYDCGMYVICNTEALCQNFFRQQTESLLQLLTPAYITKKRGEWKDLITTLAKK
# HKDC1 inhibitor: inhibitors of human hexokinase HKDC1 | recombinant HKDC1, G6PDH/diaphorase resazurin coupled fluorescence | actives 0.16% (n = 340,000) | inhibition, % at 20 µM | AID 493160;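 active means inhibition above about 35% when tested at 20 µM, limit read from the data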;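 further: plate controls were DMSO wells with enzyme for no effect and DMSO wells lacking enzyme for full effect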
#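 Assay system: recombinant HKDC1 hexokinase; detection: coupled resazurin fluorescence, excitation 525 nm, emission 613 nm; benchmarks: DMSO-plus-enzyme-mix negative control, buffer-substituted positive control; compound dosing: single 20 µM dose; schedule: 90 min at room temperature in dark; also added: glucose plus 1 mM ATP as hexokinase substrates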
# SENP1 FRET inh: blocks the human SENP1 SUMO protease catalytic domain. Q9P0U3. recombinant SENP1 catalytic domain, CyPet-SUMO1-YPet FRET cleavage. inhibition, % at 10 µM. actives 0.21% (n = 360,000). AID 624204;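 active means inhibition at least 30% at 10 µM, raw YFP signal under a set limit, fluorescence ratio 0.5 to 1.5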;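 further: 0% = enzyme with DMSO and 100% = no enzyme wells; some results filed as inactive read as strong as hits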
# Target sequence (Q9P0U3 419-644 limits assumed): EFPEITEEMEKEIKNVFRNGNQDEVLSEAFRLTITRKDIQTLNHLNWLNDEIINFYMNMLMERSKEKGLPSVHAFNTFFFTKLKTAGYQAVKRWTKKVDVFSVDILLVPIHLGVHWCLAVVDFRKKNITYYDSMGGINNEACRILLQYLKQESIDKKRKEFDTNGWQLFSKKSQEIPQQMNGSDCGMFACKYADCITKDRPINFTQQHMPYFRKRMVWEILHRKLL
#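 Assay system – human recombinant His6-tagged SENP1 catalytic domain enzyme · Input – SENP1 enzyme, 20 pM final · Buffer or medium – Tris pH 8 buffer plus EDTA, NaCl, BME, BSA, NP40, catalase · Schedule – 50 min reaction at room temperature · Technique – FRET read of cyan and yellow fluorescence · Control set – no-enzyme wells low, DMSO-plus-enzyme wells high control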
# Apaf1 inhib: blocks human Apaf-1 apoptosome activity; reconstituted apoptosome caspase-3 activity, DEVD-Rh110 fluorescence; inhibition, % at 20 µM; actives 0.71% (n = 330,000); active means inhibition of at least 40% at 20 µM;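 further: plate controls were DMSO wells for no effect and DEVD-CHO caspase inhibitor wells for full effect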
#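 Material: cell-free apoptosome with Apaf-1, procaspase-3 and caspase-9; Buffer or medium: Hepes pH 7.5 with detergent and BSA; Reagent: cytochrome c trigger plus (Z-DEVD)2-Rh110 caspase-3 substrate; Times: compound with Apaf-1, dATP, procaspase-3 30 min, then 50 min reaction, room temperature; Technique: Rh110 fluorescence intensity.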
# * hit, by the source's call; x = no result given. Only part of the results is shown; rates above refer to the full screens.
SMILES,PfGluPho inh,SENP8 block,HKDC1 inhibitor,SENP1 FRET inh,Apaf1 inhib
CC1(C)Cc2nc(-c3ccccc3)nc(SCC(=O)N3CCOCC3)c2CO1,13,15,-6,2,7
C=CCn1c(SCC(=O)Nc2ccccc2F)nnc1C(C)NC(=O)c1ccccc1F (stereo not given),7,-2,-5,-1,-11
Cc1ccc(NC(=O)N2C(=O)C3(OCCO3)c3ccccc32)cc1,7,14,-3,3,0
O=C(/C=C/c1cccc([N+](=O)[O-])c1)c1ccco1,1,10,17,0,-5
CCOC(=O)CSc1nc(N2CCOCC2)c2c(c1C#N)CC(C)(C)OC2,-9,-311,2,-1,2
O=C1COc2ccc(C(=O)c3ccccc3C(=O)O)cc2N1,-3,26,-8,2,-1
CCOC(=O)C1CCN(C(=O)c2ccc3c(c2)NC(=O)/C(=C/c2ccccc2)S3)CC1,2,-19,3,-3,28
CCN(CC)c1cc(NCCO)c([N+](=O)[O-])c2nonc12,-8,33,23,-18,11
COc1ccc(C)c2sc(NC(=O)C3=COCCO3)nc12,x,-131,x,4,-5
CC1CCN(C(=O)c2ccc(CNS(=O)(=O)c3ccc(C(C)(C)C)cc3)cc2)CC1,12,-4,11,1,18
COC(=O)[C@H](CC(C)C)NS(=O)(=O)N(Cc1ccccc1)[C@@H](CC(C)C)C(=O)OC,20,5,3,0,23
CC(=O)N/C(=C\c1ccccc1)C(=O)OC(C)C(=O)N(C)c1ccccc1 (stereo not given),0,12,-6,2,-2
COc1ccc(NC(=O)Nc2cc(C)ccc2OC(F)F)c(OC)c1,10,21,7,1,-13
CCOC(=O)/C(=N/O)C1=NC(C)(C)Cc2cc(C)c(C)cc21,-4,6,8,1,3
Cc1ccc(S(=O)(=O)NCc2ccc(C(=O)N3CCCC3)cc2)cc1,-8,14,-10,3,-2
CCOC(=O)N1CCC(NC(=O)c2ccc(CNS(=O)(=O)c3ccc(F)cc3)cc2)CC1,-5,22,-10,4,-17
COc1ccc(Nc2ncnc3nc[nH]c23)cc1OC,-18,2,4,-6,1
O=C(COC(=O)c1cc(=O)c2ccccc2o1)Nc1c(F)c(F)c(F)c(F)c1F,-18,12,-8,0,-4
O=C(/C=C/c1cccc([N+](=O)[O-])c1)N1CCN(Cc2ccccc2)CC1,4,18,-4,1,8
CC(C)N(C(=O)c1ccc2nc(-c3ccccc3)c(-c3ccccc3)nc2c1)C(C)C,-11,-229,-3,0,12
Cc1cccc(NC(=S)NC(=O)c2ccc(-c3ccccc3)cc2)n1,-7,2,0,-1,8
O=C(/C=C/c1cccc([N+](=O)[O-])c1)c1ccc2c(c1)OCCO2,13,11,5,4,-2
CCC/C(O)=C1\C(=O)CC(C)(C)CC1=Nc1cccc([N+](=O)[O-])c1,-2,11,1,2,3
O=C(Nc1ccc(Cl)cc1)c1cc(S(=O)(=O)N2CCOCC2)cs1,-1,1,3,2,11
O=C(Nc1nnc(CCN2CCOCC2)s1)c1ccccc1,2,2,-4,-2,11

# Ordered by heavy-atom count (smallest number first): some entries from above.
SMILES,PfGluPho inh,SENP8 block,HKDC1 inhibitor,SENP1 FRET inh,Apaf1 inhib
COc1ccc(Nc2ncnc3nc[nH]c23)cc1OC,-18,2,4,-6,1
COc1ccc(C)c2sc(NC(=O)C3=COCCO3)nc12,x,-131,x,4,-5
Cc1ccc(NC(=O)N2C(=O)C3(OCCO3)c3ccccc32)cc1,7,14,-3,3,0
CCOC(=O)C1CCN(C(=O)c2ccc3c(c2)NC(=O)/C(=C/c2ccccc2)S3)CC1,2,-19,3,-3,28
C=CCn1c(SCC(=O)Nc2ccccc2F)nnc1C(C)NC(=O)c1ccccc1F (stereo not given),7,-2,-5,-1,-11

# Going on with the list.
SMILES,PfGluPho inh,SENP8 block,HKDC1 inhibitor,SENP1 FRET inh,Apaf1 inhib
COC(=O)c1ccc(NC(=S)NC(=O)c2cccnc2)cc1,0,22,-6,2,-4
Cc1nnc(NC(=O)CSc2nnc(CCNC(=O)c3ccccc3F)n2C)s1,-7,16,-4,2,-3
O=C(CC1C(=O)NCCN1Cc1c(F)cccc1Cl)NCCC1=CCCCC1 (stereo not given),-13,15,-4,0,-5
OCC(O)CSc1nc(-c2ccccc2)nc2c1CCC2 (stereo not given),-7,12,-11,1,-2
CCOC(=O)C1CCN(C(=O)c2ccccc2NS(=O)(=O)c2ccc(F)cc2)CC1,2,22,9,2,-6
Cc1ccc(N2CC(C(=O)Nc3nc4ccc(S(C)(=O)=O)cc4s3)CC2=O)cc1C (stereo not given),-30,-10,3,1,11
C=CCn1c(C)nnc1SCC(=O)Nc1ccccc1C(=O)NC1CC1,-15,7,-4,0,-7
CCOC(=O)C1CCN(C(=O)CC(NS(=O)(=O)c2ccc(OC)cc2)C(C)C)CC1 (stereo not given),-7,20,-6,2,-2
O=C(CC(=O)Nc1ccccc1F)Nc1ccccc1F,4,20,2,1,-2
CCC(=O)Oc1ccc(C(=O)Nc2ccc3c(c2)C(=O)N(C2CCCCC2)C3=O)cc1,10,-296,14,-2,21
O=C(Nc1cccc(C(F)(F)F)c1)NC1CCN(S(=O)(=O)c2ccc(F)cc2)CC1,16,7,-2,1,12
COc1cccc2cc(C(=O)CS(=O)(=O)c3ccc(C)cc3)c(=O)oc12,-7,-7,34,-144,5
Cc1ccc(C(=O)N/N=C\c2cc3c(cc2Br)OCO3)s1,10,-263,-10,3,-7
CCCn1c(C2CCCN2c2nc(-c3ccc(OC)cc3)cs2)nc2ccccc21 (stereo not given),10,8,9,0,38
COc1ccc(Cl)cc1Nc1nc(C)cc(C)c1C(N)=O,-14,5,-7,1,-2
CC(=O)Nc1ccc(NC(=O)CSc2n[nH]c(-c3cccs3)n2)cc1,3,5,19,1,-6
COc1cccc(OCC(=O)Nc2ccccc2C(=O)Nc2ccc(C(=O)O)cc2)c1,-20,-12,4,1,-3
COc1ccc(C)cc1NC(=O)NNS(=O)(=O)c1ccc(NC(C)=O)cc1,-6,17,-8,1,8
Cc1cc(C(=O)COC(=O)Cc2ccc(Cl)cc2)c(C)n1C,-8,7,-2,-1,2
N#Cc1ccccc1NC(=O)c1cc(=O)c2ccccc2o1,4,18,-7,0,-7
COc1ccc(C(=O)N/N=C/c2ccc(OC)c(OS(=O)(=O)c3ccccc3)c2)cc1,11,8,-9,3,4
COc1cc(Br)c(CC(=O)O)cc1OC,-21,x,2,x,-4
Cn1c(CC(=O)NNC(=O)c2ccc(Cl)nc2)nc2ccccc21,-7,12,3,1,-7
O=c1[nH]ncc(N/N=C\c2cccnc2)c1Cl,-9,6,-3,2,-2
CCOc1cc(C)c(Cl)cc1S(=O)(=O)NCc1ccc2c(c1)OCO2,11,15,9,2,9

# (listing goes on)
SMILES,PfGluPho inh,SENP8 block,HKDC1 inhibitor,SENP1 FRET inh,Apaf1 inhib
COc1ccc(CSc2nc(N3CCOCC3)c3c(c2C#N)CC(C)(C)OC3)cc1,17,-30,2,2,15
CS(=O)(=O)c1ccc(C(=O)NNC(=O)c2ccccc2-n2cccc2)cc1,6,15,4,2,-3
CCOC(=O)[C@@H](C)NS(=O)(=O)N(Cc1ccccc1)[C@H](C(=O)OC)C(C)C,16,15,-4,2,2
CCOC(=O)CCSc1nc(N2CCOCC2)c2c(c1C#N)CC(C)(C)OC2,46,-10,1,1,11
CCCCCn1ccc(=O)c2c(C(F)(F)F)nccc21,9,15,-2,-5,1
CC1CCCN(C2(O)C(=O)Nc3c(C(F)(F)F)cccc32)C1 (stereo not given),-11,9,5,-2,0
Fc1ccc(/C=C2\CCCC3=C2Nc2ncnn2C3c2ccc(F)cc2)cc1 (stereo not given),7,-65,17,1,28
CCCn1c(C2CCCN2c2nc(C)cs2)nc2cc(Cl)c(Cl)cc21 (stereo not given),3,5,1,6,11
O=C(N/N=C/c1ccc2c(c1)OCO2)c1ccc(NS(=O)(=O)c2cccs2)cc1,-3,-437,8,0,-1
COc1ccc(C(=O)Oc2ccc(/C=N/NC(=O)Cc3ccc([N+](=O)[O-])cc3)cc2)cc1,-19,3,9,1,-6
CCOc1ccc(-c2ccc(NS(=O)(=O)c3cc([N+](=O)[O-])c(C)c([N+](=O)[O-])c3)cc2)nn1,-14,11,1,0,7
COc1cc(O)oc1C=Nc1ccc(Cl)cc1Cl,11,18,0,-1,14
CC1=C(C(=O)Nc2ccccn2)C(c2cccnc2)n2nnnc2N1 (stereo not given),-8,-19,-5,0,1
COc1ccc(/C=C2\N=C(C)N(c3ccc4ccccc4c3)C2=O)cc1OC,27,-162,-8,-82,21
Cc1cc(C)nc(N2CCCC(C(=O)Nc3nc4ccc(S(C)(=O)=O)cc4s3)C2)n1 (stereo not given),-6,-4,-9,0,8
CC1CCN(CCCNc2cc(NCCO)c([N+](=O)[O-])c3nonc23)CC1,-6,17,1,-12,-2
COc1ccc(NC(=O)CNC(c2ccccc2)c2ccccc2)cc1,6,22,8,-6,0
COc1ccccc1C(=O)Nc1ccncc1,-17,17,3,1,-4
COc1ccc(Cc2noc(CN(C)CCc3ccccc3)n2)cc1OC,-11,14,-6,1,-3
Cn1c(CCNC(=O)c2ccccc2F)nnc1SCC(=O)Nc1nncs1,-8,4,-2,1,5
O=[N+]([O-])c1c(NCCCO)cc(N2CCCCCC2)c2nonc12,-2,23,13,-32,11
Cc1cc(C(=O)COC(=O)c2ccc[nH]c2=O)c(C)n1C,6,15,-6,1,-11
CCOC(=O)C1=NN(c2ccc(OC)cc2)C2C(=O)N(c3ccccc3OC)C(=O)C12 (stereo not given),-3,-150,-1,14,-1
O=S(=O)(NCc1ccc2c(c1)OCO2)c1ccccc1F,-8,10,-3,1,5
CC(=O)O[C@H]1c2ccccc2-c2ccccc2[C@@H]1OC(C)=O,-5,12,-1,-1,2

# (next part)
SMILES,PfGluPho inh,SENP8 block,HKDC1 inhibitor,SENP1 FRET inh,Apaf1 inhib
COc1ccc(NC(=O)c2cc(Br)ccc2Cl)c(OC)c1,-3,-2,-8,-1,-2
C=CCn1c(Cc2csc(N)n2)nnc1SCC(=O)Nc1ccccc1C(F)(F)F,-16,11,-10,1,-11
CC(C)CCNC(=O)[C@H](Cc1ccccc1)N1Cc2ccccc2C1=O,-1,8,-2,1,5
CCc1ccc(NC(=O)Nc2ccon2)cc1,5,21,-1,0,8
COc1ccc(C)cc1NC(=O)CNC(c1ccccc1)c1ccc(C)cc1 (stereo not given),24,12,2,3,22
CCc1ccc(CN2CCC(CO)(CC3CCCCO3)CC2)o1 (stereo not given),-5,1,-6,0,10
COCCCNC(=S)NCCNc1nc2cc(C)c(C)cc2cc1C#N,13,-408,7,-149,-4
NS(=O)(=O)c1ccc(NC(=O)CSc2nnc(COc3ccccc3Cl)n2C2CC2)cc1,-4,11,-1,0,18
O=C(NN=Cc1c(F)c(F)c(F)c(F)c1F)c1ccc(NS(=O)(=O)c2cccs2)cc1,5,-13,-4,-1,1
CCNC(=O)N1C(=O)C2(OCCO2)c2ccccc21,2,17,-8,2,1
CC(C)Nc1ncnc2c1cnn2-c1ccccc1,21,8,1,-6,-1
O=C(CSc1nc(O)cc(=O)[nH]1)C1CC1,-18,28,0,1,-2
COc1ccc(-n2c(N)cc(=O)nc2SCC(=O)N2CCN(c3ccccc3)CC2)cc1,7,5,-5,1,9
O=C1COc2ccc(C(=O)CSc3ccccc3C(=O)O)cc2N1,-9,16,-5,0,-25
Cc1cc(C)c(C(=O)N2CCCC(CNC(=O)C3(c4ccc(Cl)cc4)CC3)C2)c(=O)[nH]1 (stereo not given),-11,-6,-7,0,9
O=C(/C=C/c1ccccc1)c1ccc2c3c(cccc13)CC2,11,17,5,1,14
CN(CCCC(=O)NCc1ccccc1)S(=O)(=O)c1ccc([N+](=O)[O-])cc1,16,24,-3,0,3

# 3 compounds drawn at random from the list so far:
SMILES,PfGluPho inh,SENP8 block,HKDC1 inhibitor,SENP1 FRET inh,Apaf1 inhib
COc1ccc(NC(=O)c2cc(Br)ccc2Cl)c(OC)c1,-3,-2,-8,-1,-2
O=C(/C=C/c1ccccc1)c1ccc2c3c(cccc13)CC2,11,17,5,1,14
O=C(CSc1nc(O)cc(=O)[nH]1)C1CC1,-18,28,0,1,-2
